# D2 PAM = human D2 receptor positive allosteric modulation; AID 624464; potentiation, % (test concentration not listed); DiscoveRx D2 beta-arrestin cells, luminescence, 90 min; 100% = 57 uM dopamine signal; 360,000 compounds, 0.23% hits; active = potentiation of 50% or more; inconclusive = 30% to 50%; inactive = 30% or less;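 note: compound concentration not given in the record; tested on top of an EC20 dose of dopamine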
# Target sequence (P14416 whole entry, looked up): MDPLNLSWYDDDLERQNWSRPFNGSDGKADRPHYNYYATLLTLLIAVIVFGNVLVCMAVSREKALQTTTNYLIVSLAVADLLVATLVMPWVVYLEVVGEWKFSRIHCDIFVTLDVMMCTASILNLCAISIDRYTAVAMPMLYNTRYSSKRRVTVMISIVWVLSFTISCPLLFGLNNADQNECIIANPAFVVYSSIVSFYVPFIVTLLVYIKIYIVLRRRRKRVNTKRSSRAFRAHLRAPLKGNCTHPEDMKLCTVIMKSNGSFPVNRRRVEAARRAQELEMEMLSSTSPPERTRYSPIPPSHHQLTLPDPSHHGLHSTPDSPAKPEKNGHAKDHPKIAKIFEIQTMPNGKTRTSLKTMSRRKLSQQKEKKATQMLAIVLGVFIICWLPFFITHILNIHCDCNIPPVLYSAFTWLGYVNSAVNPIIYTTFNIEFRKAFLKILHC
#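 PathHunter beta-arrestin assay in DiscoveRx D2 cells. Compounds were added with an EC20 of dopamine (50 nM final) for 90 min at 37 deg C. Luminescence was read 1 h after detection reagent, with 57 uM dopamine as the EC100 control.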
# Six1-Eya2 inh = Six1/Eya2 interaction inhibition; AID 651725; activity change, % (concentration not given with the values); 360,000 compounds, 0.56% hits; AlphaScreen GST-Six1/His-Eya2 binding, biochemical; stronger effect = lower value; control for the full effect not named in the record; in the data active = activity change below about -65%; inconclusive = about -30% to -65%; inactive = above about -30%; note: % is set by controls: 0 for no effect and ±100 for the full control effect
#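 GST-Six1 + His-Eya2 (5X stock: 250/500 nM); Tris pH 8.0, 300 mM NaCl, 0.05% BSA, 0.02% Tween 20; GSH donor/Ni acceptor beads; 1 h 37 °C dark; AlphaScreen readout.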
# TRPML1 agonist = activates the human TRPML1 channel; Q9GZU1; TRPML1-expressing cells, Ca2+ dye fluorescence, FDSS; host cell line not named in the record; reference of the full effect not given here; activation, % (concentration not given with the values); 410,000 compounds, 0.12% hits; AID 624414; in the data active = activation above about 50%; inconclusive = about 30% to 50%; inactive = below about 30%; note: 0% is about no effect; the text of the record puts the active cut at 80%
# Target sequence (Q9GZU1 whole entry, looked up): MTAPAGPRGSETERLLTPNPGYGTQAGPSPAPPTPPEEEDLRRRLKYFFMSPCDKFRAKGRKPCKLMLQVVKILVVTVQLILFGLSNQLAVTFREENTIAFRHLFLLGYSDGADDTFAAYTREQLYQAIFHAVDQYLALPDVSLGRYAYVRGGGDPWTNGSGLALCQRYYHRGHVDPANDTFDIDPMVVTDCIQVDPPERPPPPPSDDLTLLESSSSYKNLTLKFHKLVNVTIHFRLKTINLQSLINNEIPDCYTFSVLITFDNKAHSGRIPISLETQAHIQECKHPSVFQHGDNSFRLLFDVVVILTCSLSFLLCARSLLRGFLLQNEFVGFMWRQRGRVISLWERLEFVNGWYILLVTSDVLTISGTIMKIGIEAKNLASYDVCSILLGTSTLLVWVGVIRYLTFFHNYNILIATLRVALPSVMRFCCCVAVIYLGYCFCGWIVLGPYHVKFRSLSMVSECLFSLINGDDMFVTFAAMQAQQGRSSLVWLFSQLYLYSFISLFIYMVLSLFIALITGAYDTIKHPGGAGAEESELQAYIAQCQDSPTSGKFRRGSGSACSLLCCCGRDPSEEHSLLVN
#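 TRPML1-DL cells, Tet-induced overnight (~16 h, 37 degrees C), loaded 45-90 min at room temperature with Ca8 no-wash calcium dye plus quencher. FDSS fluorescence: 10 s baseline, compound pin-transfer, 110 s agonist read, then EC80 54-4 (4uM final) and 110 s antagonist read.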
# TRPML1 inh = human mucolipin-1 channel inhibition; 390,000 compounds, 0.02% hits; activity change, negative = inhibition, % (no concentration beside the values); AID 624415; TRPML1-inducible cells, Ca2+ dye fluorescence, FDSS; stronger effect = lower value; inhibition of EC80 agonist-evoked calcium signal; Q9GZU1; in the data active means activity change below about -50%; inconclusive means about -30% to -50%; inactive means above about -30%;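 note: stimulus is agonist 54-4 at its EC80 concentration; % is set by controls: 0 for no effect and ±100 for the full control effect; compound concentration not given in the record; the text of the record puts the active cut at -80%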
#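 TRPML1-DL cells, Tet-induced overnight (~16 h, 37 °C) at 1,500 cells/well, were loaded with Ca8 no-wash dye plus quencher for 45-90 min at room temperature. Compounds were pinned during FDSS kinetic reading; agonist 54-4 at EC80 (4 uM final) then added.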
# D2 ag = agonists of human D2 dopamine receptor (beta-arrestin) | DiscoveRx PathHunter D2 beta-arrestin, luminescence, 90 min; 100% = 57 uM dopamine signal | P14416 | activation, % (test concentration not listed) | 360,000 compounds, 0.084% hits; in the data active = activation above about 40%; inconclusive = about 15% to 40%; inactive = below about 15%; note: compound concentration not given in the record; the text of the record calls up to 30% inactive
#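 Agonist mode: compounds alone added to overnight-plated D2 PathHunter cells for 90 min at 37 C, with 57 uM final dopamine (EC100) defining full response. Beta-arrestin recruitment detected by chemiluminescent reagent, read after 1 h at ambient temperature.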
# PINK1 modulator = PINK1 expression modulation | PINK1 immunofluorescence, high-content cytometry, 24 h | Potency, µM (doses to about 76.6 µM), inactives show top-dose activation (PINK1 increase), hits mostly activators | 410,000 compounds, 0.2% hits | AID 624263; active = well fitted activation curve with a large enough effect; inconclusive = small, poorly fitted or top-dose-only effect; inactive = flat fitted curve, though single readings scatter; cell line not stated here;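 note: potency is the fitted concentration of half-maximal effect; % of control where 0% means no effect; nearly all actives have a fitted effect of over 65% in size; a mitochondrial uncoupler was the plate control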
#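 PINK1 protein, normally rapidly degraded, was detected by immunofluorescence after 24 hour compound treatment of a stable cell line. Titration data (5 concentrations) came from laser-scanning cytometry, with CCCP-treated wells as controls.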
# Active calls of the source: *; · = not tested or not shown; [ ] = remark or other dose. Not a hit list; 1% or so of the library scored in one or more.
SMILES,D2 PAM,Six1-Eya2 inh,TRPML1 agonist,TRPML1 inh,D2 ag,PINK1 modulator
COCc1cc(C)nc(OCC(=O)N/N=C/c2ccc(C)o2)c1C#N,0,6,0.1,-19,1.4,0.7%
COc1ccc(S(=O)(=O)N2CCC(c3ccncc3)CC2)cc1Cl,·,·,-0.3,3,·,0.5%
CC(C)(C)c1ccc(C(=O)NC(=S)NNC(=O)c2cccs2)cc1,-11,-2,74*,-16,-1.7,4.0%
CC(=O)c1cccc(NC(=O)c2onc(C)c2Cl)c1,-8,-13,-0.2,-12,-1.5,2.7%
COc1ccc(Nc2nc(-c3ccccc3)cs2)cc1,-3,-6,1.7,4,-1.1,2.2%[38.3 µM]
CC(C)[C@H](NC(=O)[C@@H]1CSCN1C(=O)OC(C)(C)C)C(=O)NCC1CCC(C(=O)O)CC1 (some centres not stated),4,2,0.8,5,-1.7,-2.6%
CCc1noc(C)c1C(=O)Nc1nc(-c2ccc(OC)c(OC)c2)cs1,25,-15,1.0,24,4.6,11%
CC(=O)c1cc2c(cc1NC(=O)CCn1cccc1)OCO2,-10,-17,-1.1,19,-2.0,-0.7%
COc1ccc2oc(=N)c(C(=O)Nc3ccccc3)cc2c1,-7,1,0.1,30,-1.6,4.9%
COc1ccc(NC(=O)CN2C(=O)CCc3cc(S(=O)(=O)N4CCOCC4)ccc32)cc1Cl,·,·,0.5,7,·,0.5%
Cc1ccnc(SCCn2c(N3CCCCC3)nc3c2c(=O)n(C)c(=O)n3C)n1,-18,0,-0.2,0,-1.9,3.6%
COCc1c(C(=O)N2CCN(S(=O)(=O)c3ccccc3Cl)CC2)oc2ccccc12,0,4,0.4,55,-1.4,1.0%
COCCN(C(=O)CSc1nc2ccccc2s1)c1c(N)n(Cc2ccccc2)c(=O)[nH]c1=O,-9,0,2.1,0,-5.0,2.5%
O=C(CCN1C(=O)c2cccc3cccc(c23)C1=O)NCc1ccco1,-6,-1,0.4,1,-2.5,1.0%
CCN(CC)CCOC(=O)c1ccc(NC(=O)CCCN2C(=O)S/C(=C/c3ccc(OC)cc3)C2=S)cc1,-15,-20,-0.2,-4,-3.5,-0.2%
COC(=O)c1cc2occc2n1CC(=O)Nc1ccc(OC)c(OC)c1,-20,-6,-0.4,0,-0.5,·
CC(=O)c1ccc(S(=O)(=O)Nc2ccc(-n3c(C)nc4ccccc4c3=O)cc2)cc1,-36,-5,-0.3,15,-3.2,3.0%
COc1ccc(OC)c(C2/C(=C(/O)c3ccc(C)cc3)C(=O)C(=O)N2Cc2ccco2)c1 (configuration not stated),-6,-1,3.0,29,-1.8,2.4%
Cn1cccc1/C=N/NC(=O)CNc1cccc2ccccc12,-7,-21,1.3,3,-0.4,2.1%
COc1ccc(S(=O)(=O)N2CCCCCC2)cc1C(=O)NCc1ccccc1Cl,3,4,-0.2,2,-0.7,1.6%

# 4 entries picked at random from the list so far, as already listed:
SMILES,D2 PAM,Six1-Eya2 inh,TRPML1 agonist,TRPML1 inh,D2 ag,PINK1 modulator
CCc1noc(C)c1C(=O)Nc1nc(-c2ccc(OC)c(OC)c2)cs1,25,-15,1.0,24,4.6,11%
COc1ccc2oc(=N)c(C(=O)Nc3ccccc3)cc2c1,-7,1,0.1,30,-1.6,4.9%
CC(C)[C@H](NC(=O)[C@@H]1CSCN1C(=O)OC(C)(C)C)C(=O)NCC1CCC(C(=O)O)CC1 (some centres not stated),4,2,0.8,5,-1.7,-2.6%
COc1ccc(NC(=O)CN2C(=O)CCc3cc(S(=O)(=O)N4CCOCC4)ccc32)cc1Cl,·,·,0.5,7,·,0.5%

# The listing picks up; the five compounds before the break are reprinted first.
SMILES,D2 PAM,Six1-Eya2 inh,TRPML1 agonist,TRPML1 inh,D2 ag,PINK1 modulator
COC(=O)c1cc2occc2n1CC(=O)Nc1ccc(OC)c(OC)c1,-20,-6,-0.4,0,-0.5,·
CC(=O)c1ccc(S(=O)(=O)Nc2ccc(-n3c(C)nc4ccccc4c3=O)cc2)cc1,-36,-5,-0.3,15,-3.2,3.0%
COc1ccc(OC)c(C2/C(=C(/O)c3ccc(C)cc3)C(=O)C(=O)N2Cc2ccco2)c1 (configuration not stated),-6,-1,3.0,29,-1.8,2.4%
Cn1cccc1/C=N/NC(=O)CNc1cccc2ccccc12,-7,-21,1.3,3,-0.4,2.1%
COc1ccc(S(=O)(=O)N2CCCCCC2)cc1C(=O)NCc1ccccc1Cl,3,4,-0.2,2,-0.7,1.6%
Cn1c(SCC(=O)C(C)(C)C)nnc1-c1cccnc1,1,6,0.6,2,-0.3,0.6%
CC1=C(c2ccc(Cl)cc2)S(=O)(=O)N=C1N1CCN(c2cccc(C)c2)C(C)C1 (configuration not stated),·,·,0.0,2,·,-0.8%
CCN1CCN(c2ncc(C(=O)Nc3ccccc3C(=O)OC)c3ccccc23)CC1,-16,-5,0.2,26,-0.6,1.8%
O=C(NCC1CCCO1)c1cc(-c2ccccc2)nc2ccccc12 (configuration not stated),-1,1,1.8,2,-0.4,-1.1%
Oc1ccc(C=NC2CCCCC2)cc1,-11,3,-0.9,3,0.3,-0.8%
CC(=O)c1c(N)c(C#N)c(C)n1-c1ccc(Br)cc1,-3,2,2.5,32,-1.1,-0.8%
COc1ccccc1CN(C)C(=O)c1cccc(S(=O)(=O)N2CCCc3ccccc32)c1,-13,0,2.1,41,-0.5,-1.1%
O=C(CSc1ccc(-c2cccs2)nn1)Nc1ccccc1F,5,-1,-0.6,1,-4.7,-0.5%
CC1CCCCN1C(=O)Cc1ccc(F)cc1 (configuration not stated),-5,3,2.5,8,0.3,-2.7%
COc1ccc(-n2c(C)nc3c(cnn3-c3ccc(F)cc3)c2=O)cc1,·,·,-1.0,5,·,-0.1%
O=C(O)/C=C\C(=O)Nc1ccc(N2CCN(c3ccc(F)cc3)CC2)cc1,-8,-16,0.2,18,-4.0,0.8%
O=c1cc(CSc2ccc(Cl)cc2)nc(N2CCCCC2)[nH]1,-15,3,2.0,-1,-3.9,0.7%
Cc1c(-c2ccccc2)nc2ccccc2c1C(=O)Nc1ccncc1,-1,-1,-0.2,14,8.5,2.8%
Cc1nnc(NCc2ccc(F)cc2)c2c1nnn2Cc1ccccc1Cl,·,·,-0.7,-9,·,-0.1%
COc1ccc(S(=O)(=O)N(CC(=O)NCc2cccnc2)C2CCCCC2)cc1OC,24,3,1.0,-3,9.5,0.7%
Cc1cccc(-c2ocnc2C(=O)Nc2ccccc2C(=O)N2CCCC2)c1,-3,4,-0.3,2,-1.3,2.8%
O=C(NCCc1ccccc1)c1ccc2c(c1)CCN2S(=O)(=O)c1ccccc1,·,·,4.6,20,·,-0.6%
CN1CCc2c(sc(/N=C/c3ccco3)c2C(N)=O)C1,-11,-14,5.5,7,0.8,-4.9%
COc1ccc(OC)c(NC(=O)CSc2nnc(C3CCCCC3)n2-c2ccccc2)c1,-11,-10,1.6,23,-4.5,-2.2%
Cc1cc(C)nc(N(C#N)S(=O)(=O)c2ccccc2Cl)n1,3,6,-0.9,2,0.8,1.4%
Cc1onc(-c2ccccc2)c1C(=O)NNC(=S)NC(=O)/C=C/c1ccccc1,-42,-16,0.0,-12,-13,2.2%
Cc1c(CCC(=O)O)c(=O)oc2cc(OCc3cccc(Cl)c3)ccc12,-8,-3,·,·,-0.6,2.6%
O=C(c1ccccc1)N1CCCC(c2nc3c(nnn3Cc3ccc(F)cc3F)c(=O)[nH]2)C1 (configuration not stated),·,·,2.9,4,·,1.7%
Cc1ccc(C(C(=O)NC2CCCC2)N(C(=O)c2csnn2)c2ccccc2)o1 (configuration not stated),-9,1,-0.4,-16,-5.1,3.3%
O=C(Oc1c(-c2ccccc2)c(=O)n2c3c(cccc13)CC2)c1ccc(F)cc1,-2,1,2.4,33,0.3,0.3%
CC(C(=O)Nc1ccc(F)c(F)c1F)N(C)CCOc1ccccc1 (configuration not stated),-8,9,0.2,-1,-2.8,2.5%
N#C/C(=C\C1=C(N2CCOCC2)C(=C/c2cccc([N+](=O)[O-])c2)/CC1)C(=O)Nc1ccccc1F,-3,-3,0.3,-5,0.1,5.6%
CCC(C(=O)OCC(=O)Nc1cccc(OC)c1)c1ccccc1 (configuration not stated),-8,-1,1.6,-7,-2.2,3.8%
COc1ccc(C(CNC(=O)c2ccc(S(=O)(=O)N(C)C)cc2)N(C)C)cc1 (configuration not stated),-10,-2,-0.6,-11,-1.2,4.5%
Cc1ccc(NC(=O)COC(=O)c2cccnc2)cc1,-5,7,0.2,-7,-2.8,-0.5%
COc1ccc(NC(=O)CN(C)C(=O)CNC(=O)Cc2cccc3ccccc23)cc1,-13,3,0.2,13,-3.5,0.7%
COC(=O)Nc1sc(C(=O)N(C)C)c(C)c1C(=O)OC,2,6,-0.9,-6,0.2,0.2%
CC(NC(=O)c1cc(COc2ccccc2)on1)c1nccs1 (configuration not stated),-8,-4,-0.4,0,0.3,0.3%
O=C(C1CCC1)N1CCN(c2cccc(C(F)(F)F)c2)CC1,0,20,0.5,26,-0.8,0.1%
CC(=O)Nc1nonc1-c1nnc(SCC(=O)N(C)c2ccccc2)n1C,·,·,0.1,-17,·,1.3%
COc1ccc(-c2cn(-c3ccc(Cl)cc3)c3[n+]2CCCCC3)cc1,-11,14,-0.3,38,-6.6,-2.9%
COc1ccc(S(=O)(=O)N2CCc3ccccc32)cc1C(=O)Nc1ccc(NC(C)=O)cc1,-3,5,-0.2,-6,-2.1,6.8%
C#CCOCCOCCOCCNc1nc(N2CCN(C(=O)[C@H](CCC(=O)O)n3cc(C(N)[C@H](C)CC)nn3)CC2)nc(N2CCN(C(=O)[C@H](CCC(=O)O)n3cc(C(N)[C@H](C)CC)nn3)CC2)n1 (some centres not stated),-1,16,0.1,-3,-3.8,1.1%
CCn1c(C)nc2cc(C(=O)OC(C(F)(F)C(F)F)C(F)(F)C(F)F)ccc21,-1,8,1.1,53,-1.9,1.4%
CCn1c(=O)c(C(=O)NNC(=O)c2cccc(Cl)c2)c(O)c2ccccc21,-3,-2,3.4,-15,4.6,3.0%
Cc1ccc(C(C)CCN2CCC(n3nccc3NC(=O)c3ccccc3)CC2)o1 (configuration not stated),-26,-10,-0.2,12,-3.4,0.5%
Cc1nnc(NC(=O)c2ccc3c(c2)C(=O)N(CC2CCCO2)C3=O)s1 (configuration not stated),-6,5,0.6,-4,-1.4,-1.3%[38.3 µM]
Cc1ccc(C(=O)/C=C/Nc2ccc(S(=O)(=O)Nc3cc(C)nc(C)n3)cc2)cc1,6,-8,0.5,-10,-1.1,0.8%
CC(NC(=O)CCC1COc2ccccc2O1)c1ccccc1 (configuration not stated),-9,3,0.3,-14,-1.1,1.3%[38.3 µM]
CCc1ccccc1NC(=O)CC1SCCNC1=O (configuration not stated),3,14,-0.4,10,-7.0,0.6%
CSc1ccccc1NC(=O)C(C)N(C)CC(=O)N1CCN(Cc2ccccc2)CC1 (configuration not stated),-19,-3,0.4,4,0.9,-0.6%

# Bioassay records deposited in PubChem by National Center for Advancing Translational Sciences (NCATS).
